# Bioassay records as filed in PubChem.
# 2A Renilla: lowers the Renilla signal of an FMDV 2A StopGo reporter; HEK cells with a luciferase reporter of 2A StopGo recoding; Potency, µM (titrated, usually from 57.5 µM), for the others: top-dose signal change, negative = less light; 120,000 tested, 0.32% active; AID 1745857; active means well fitted falling curve with a large enough effect; inconclusive means small, poorly fitted or top-dose-only effect; inactive means no such curve, though single readings can be large or run the other way; further: nearly all actives have a fitted effect of over 55% in size; overnight with compound
# 2A firefly: FMDV 2A StopGo reporter, firefly signal; 120,000 tested, 0.23% active; Potency, µM (series often up to 57.5 µM), inactives show at the highest dose signal change, negative = less light; HEK cells with a luciferase reporter of 2A StopGo recoding; active = well fitted falling curve with a large enough effect; inconclusive = small, poorly fitted or top-dose-only effect; inactive = no such curve, though single readings can be large or run the other way; further: nearly all actives have a fitted effect of over 60% in size; overnight with compound
# * = called active by the depositor; ? = inconclusive; & = joins results of further samples; [ ] = dose if it differs, or a comment. On the % scale 0 is the no-effect control and ±100 the full control effect; potency means the concentration at half of the fitted maximal effect. This is a subset; rates above refer to the full screens.
SMILES,2A Renilla,2A firefly
CS(=O)(=O)Oc1ccc2c(=O)c(-c3ccc(Cl)cc3)c(C(F)(F)F)oc2c1,?,15%
Cc1ccc(S(=O)(=O)c2nc(-c3ccco3)oc2SCc2ccccc2Cl)cc1,247%[activator],-9%
Cc1ccc(S(=O)(=O)N2CCC(n3c(C)nc4cccnc43)CC2)c(C)c1,?,?
O=C(CN1C(=O)COc2ccc(S(=O)(=O)N3CCCCCC3)cc21)N1CCN(c2cccc(C(F)(F)F)c2)CC1,-3%,13%
C/C(=N/Nc1ccccc1C(F)(F)F)c1ccc(Cl)cc1Cl,-8%[1.06 µM],-1%
Cc1ccc(C)c(NC(=O)C(Sc2ccc(S(=O)(=O)N3CCCC3)cn2)c2ccccc2)c1 (configuration not stated),25%,-3%
CS(=O)(=O)N1CCCC(c2nc3ccccc3o2)C1 (configuration not stated),-7%,23%
CC(C)c1nnc(NC(=O)c2cc(=O)c3cc(Cl)cc(Cl)c3o2)s1,2%,-10%
Cc1cc(C)c(S(=O)(=O)N2CCC(N3CCN(Cc4ccccc4)C(=O)C3=O)CC2)c(C)c1,-13%,-6%
O=S(=O)(c1ccc2c(c1)OCCO2)c1nc(-c2ccco2)oc1NCCCN1CCOCC1,98%[activator],22%
Cc1c(C(=O)N(C)C)sc2c1c(=O)n(-c1ccccc1C(F)(F)F)c(=O)n2Cc1cccc(F)c1,-10%,-23%
c1cnc(N2CCCCC2)c(CNCC2CNc3ccnn3C2)c1 (configuration not stated),1%,-8%
CC(C)C(=O)Nc1ccc(NC(=O)C(Cl)(Cl)Cl)cc1,5%,92%[activator]
CCN(CC)C(CNC(=O)/C=C/c1cccs1)c1ccccc1 (configuration not stated),6%,11%
Cc1ccc(C)c(N2CCN(C(=O)CCS(=O)(=O)c3cc4c5c(c3)CCN5C(=O)CC4)CC2)c1,?,?
CCCCCC(=O)N1c2ccccc2C(C)(c2ccccc2)CC1(C)C (configuration not stated),2%,23%
CC(C)CCNC(=O)c1c[nH]c2ccc(S(=O)(=O)Nc3cccc(C(F)(F)F)c3)cc2c1=O,134%[activator],-15%
COc1ccc2c(CNCc3ccco3)c(C(=O)O)n(Cc3cccc(F)c3)c2c1,54%[activator],-27%
O=C(CCc1nc(CS(=O)(=O)c2ccc(F)cc2)no1)NCCc1ccccc1Cl,9%,10%
O=c1c2ccccc2n(Cc2ccccc2F)c(=O)n1-c1cccc(F)c1,1%,-16%
CCOCCCNc1oc(/C=C/c2ccc(OC)c(OC)c2)nc1C#N,0%,52%[activator]
COc1ccc(C(O)c2cc3c(cc2NC(=O)c2ccc(Cl)cc2)OCCO3)cc1 (configuration not stated),32%[activator],-4%
COc1ccc(C2=NC(c3ccncc3)=Nc3ccc(OC)cc3N2)cc1,-7%,-5%
Cc1cccc(-n2nnnc2SCC(=O)NCC2(N3CCOCC3)CCCCC2)c1C,4%,-5%
CCOc1cc2c(cc1OCC)C(c1ccc(OC)cc1)N(c1ccc(C(=O)OC)cc1)C(=O)C2 (configuration not stated),38%[activator],0%
Cc1ccc(N(C(=O)c2cccs2)C2C=CS(=O)(=O)C2)cc1C (configuration not stated),-17%,-10%
Cc1ccc(C)c(N2CCN(Cc3csc(C)c3C)CC2)c1,-8%,-7%
Fc1ccc(-c2csc(/C=C/c3cccc(OCc4ccccc4)c3)n2)cc1,4%,14%
Cc1ccc(OCC(=O)OCc2cc(=O)n3nc(C4CCCCC4)sc3n2)cc1C,-13%,2%
O=C(O)C(C(=O)/C=C/c1ccc(Cl)cc1)=C1SCCS1,?,36%[activator]
C=Cc1ccc(CN2C(=O)N(c3cccc(Cl)c3)S(=O)(=O)c3ccccc32)cc1,69%[activator],-3%
Cc1ccc2oc(C(=O)NC3CCS(=O)(=O)C3)cc(=O)c2c1 (configuration not stated),-4%,-9%
CC1CCN(CCCNC(=O)c2cn(C)c3ccc(S(=O)(=O)N(C)C4CCCCC4)cc3c2=O)CC1,4%,-19%
Cc1cccc(NC(=O)C2CCCN2S(=O)(=O)c2cccc3nsnc23)c1C (configuration not stated),-4%,-15%
CN(C)C(=O)c1ccc(CNC(=O)c2nccnc2N)cc1,-22%,1%
Cc1oc2cc(OC(=O)C3CC3)ccc2c(=O)c1-c1ccc(Cl)cc1,-5%,90%[activator]
COc1ccc(OCCNC(=O)c2ccc3c(c2)NC(=O)CS3)cc1,-6%[1.06 µM],11%
CCCc1cc(=O)oc2c(C)c(OC(C)C(=O)NCCCn3ccnc3)ccc12 (configuration not stated),-10%,-13%
Cn1cnc2c1c(=O)n(CC(=O)Nc1ccc3c(c1)OC1(CCCC1)O3)c(=O)n2C,5%,7%
O=C(Nc1ccccc1-n1cncn1)C1CCCCC1,-9%,13%

# Part of the list above in a different format.
O=C(O)C(C(=O)/C=C/c1ccc(Cl)cc1)=C1SCCS1
  2A Renilla: ?
  2A firefly: 36%[activator]

C=Cc1ccc(CN2C(=O)N(c3cccc(Cl)c3)S(=O)(=O)c3ccccc32)cc1
  2A Renilla: 69%[activator]
  2A firefly: -3%

Cc1ccc2oc(C(=O)NC3CCS(=O)(=O)C3)cc(=O)c2c1 (configuration not stated)
  2A Renilla: -4%
  2A firefly: -9%

CC1CCN(CCCNC(=O)c2cn(C)c3ccc(S(=O)(=O)N(C)C4CCCCC4)cc3c2=O)CC1
  2A Renilla: 4%
  2A firefly: -19%

# The results go on:
SMILES,2A Renilla,2A firefly
O=C(OCc1cc(=O)n2nc(C3CCCCC3)sc2n1)c1ccccc1Cl,7%,4%
Cc1ccc2nc(-c3ccccn3)c(Nc3ccc(F)cc3)n2c1,?,5%
COC(=O)c1sc(NC(=O)C2CCCC2)c(C(=O)OC)c1C,9%,8%
CCOC(=O)c1c(S(=O)(=O)N2CCOCC2)nn(CC)c1C,-11%,-9%
CCCN(C(=O)c1cc2c(Cl)nc3ccccc3c2s1)c1cccc(C)c1,2%,17%
O=C1C(c2ccccc2)=S=C2c3ccccc3C=CN12,5%,17%
CC(C)Sc1nnc(COc2ccc(Cl)cc2)n1C,46%[activator],0%
Cc1ccc(-c2nnc(Nc3ccccc3O)c3ccccc23)cc1,-13%,4%
CCN1C(=O)COc2ccc(-c3nc(NC(=O)c4ccccc4)sc3C)cc21,10µM*,14µM*
CC(=O)Nc1ccc(CNC2CCC(C(F)(F)F)CC2)cc1 (configuration not stated),7%,4%
CCCNc1oc(-c2cccc3ccccc23)nc1C#N,-2%,120%[activator]
CCc1ccc(C2=NN(C(=O)Cc3ccc(OC)cc3)C(O)(C(F)(F)F)C2)cc1 (configuration not stated),9%,11%
O=C(NCCNC(=O)c1ccccc1Nc1ccccc1)c1ccccc1Nc1ccccc1,16%,12%
CC(=O)N1c2ccc(S(=O)(=O)N(C)CC(=O)NCCc3ccc(Cl)cc3)cc2CC1C (configuration not stated),?,22%
O=C(/C=C/c1ccc(F)c(F)c1)c1cc2ccccc2o1,27%,0%
Cc1nnnn1-c1cccc(NC(=O)NC2CCCCC2)c1,?,0%
C=CCn1c(SCC)nc2c1c(=O)n(C)c(=O)n2C,-9%,0%
CN(CC(=O)Nc1ccc(Cl)c(Cl)c1)Cc1ncc(-c2ccc(F)cc2)o1,6%,52%[activator]
O=C1Nc2cc(Cl)ccc2Oc2ccccc21,-7%,-12%[11.5 µM]
COC(=O)C1CN(Cc2cn(Cc3ccccc3)nn2)CCS(=O)(=O)N1Cc1ccc(OC)cc1 (configuration not stated),0%,6%
Cc1cc(C)cc(-n2cccc2)c1,5%,6%
Cc1c(CCC(=O)N2CCCC2)c(=O)oc2cc(O)ccc12,24%,74%[activator]
Cc1cc(C(=O)CSc2n[nH]c(C(C)C)n2)c(C)n1C,3%,56%[activator]
O=C(Cc1csc(-c2ccsc2)n1)Nc1ccnn1Cc1ccccc1Br,25%,61%[activator]
CCOC(=O)c1cccc(NC(=O)CCn2nc(C)c(S(=O)(=O)N3CCCCC3)c2C)c1,?,?
CCc1cccc(NC(=O)NCC(O)c2ccc(F)c(F)c2)c1 (configuration not stated),16%,15%
Cn1c(=O)c2c(-c3ccc(F)cc3)n(CC(N)=O)cc2n(C)c1=O,-7%,-5%
CC(O)C(=O)Nc1ccc(C(F)(F)F)cc1 (configuration not stated),20%,77%[activator]
Cc1ccc(Cn2c(C)c3cnn(CC(=O)NCc4cccs4)c(=O)c3c2C)cc1,7%,0%
O=S(=O)(Cc1ccc(F)cc1)N1CCc2ccccc21,18%,27%
CCOc1ccc(C(=O)Nc2nc(C)cs2)cc1OC,4%,1%
CC(C)C(NC(=O)N(C)Cc1ccccc1)c1ccc2c(c1)OCCO2 (configuration not stated),11%,-6%
O=C(Cc1n[nH]c(=O)c2ccccc12)OCC(=O)N1CCCC1=O,-8%,-4%
COc1cc(NC(=O)c2nc3ccccc3nc2OC)cc(OC)c1,-10%,0%
FC(F)(F)c1cccc(CSc2cccc3cccnc23)c1,13%,0%
O=C(O)c1ccc(C2SCCCS2)cc1,-1%[1.06 µM],0%
CNC(=O)c1ccc(CN(C2CC2)S(=O)(=O)c2ccc3c(c2)CCC3)cc1,16%,16%
COc1ccc(OC)c(-c2nnc3n(CCc4ccccc4)c(=O)c4ccccc4n23)c1,-5%,45%[activator]
O=C(CCc1ncc(-c2ccc(F)cc2F)o1)N1CCN(S(=O)(=O)c2cccc(F)c2)CC1,-14%,42%[activator]
COC(=O)[C@@H](NC(=O)Nc1cc(-c2n[nH]c(=O)c3ccccc23)ccc1C)C(C)C,15%,18%

# Compound profiles (already shown). Screens in order: 2A Renilla | 2A firefly
# CC(O)C(=O)Nc1ccc(C(F)(F)F)cc1 (configuration not stated) reads 20% | 77%[activator]
# Cc1cc(C(=O)CSc2n[nH]c(C(C)C)n2)c(C)n1C reads 3% | 56%[activator]
# O=C(O)c1ccc(C2SCCCS2)cc1 reads -1%[1.06 µM] | 0%

# Next section
SMILES,2A Renilla,2A firefly
Cc1ccccc1C(=O)NCCC1=CCCCC1,17%,5%
Cc1cc2nc(-c3cccc(NC(=O)C(C)C)c3C)oc2cc1C,-13%,-8%
CC(C)C(OC(=O)Cc1c[nH]c2ccccc12)C(=O)NC(N)=O (configuration not stated),-5%,-14%
CC(=O)c1ccc(NC(=O)c2ccc3c(c2)nnn3C2CCCC2)cc1,-9%,21%
CCCN(CCC)CCNC(=O)c1cc2c(-c3ccc(Cl)cc3)nn(C)c2s1,-9%,-28%
C/C(=N\OC(=O)c1c(F)cccc1F)c1ccc(F)cc1F,19%,0%
c1csc(-c2nc(NC3CCCC3)c3ccccc3n2)c1,5%,-6%
CCCN(C(=O)Cn1nc(Cc2cccnc2)c2ccccc2c1=O)c1ccc(C(C)C)cc1,17%,0%
CCC1CCCCN1C(=O)CSc1nc(-c2ccc(OC)c(OC)c2)cc(C(F)(F)F)n1 (configuration not stated),-6%,-7%
Nc1ccc(C2=CSC3=NCCCN23)cc1,0%,7%
CCOc1ccc(C2c3c(-c4ccccc4O)n[nH]c3C(=O)N2Cc2cccnc2)cc1OC (configuration not stated),0%,-15%
CNc1c(NC(=O)c2ccc(OC)c(OC)c2)c(=O)oc2ccccc12,108%[activator],45%[activator]
COC(=O)c1sc2cccc(F)c2c1S(=O)(=O)N1CCN(c2cccc(Cl)c2)CC1,5%,-4%
Cc1ccc(-c2csc(Nc3ccc(S(N)(=O)=O)cc3)n2)cc1C,-26%,2%
N#Cc1ccc(/C=C/C(=O)c2ccc3c(c2)OCCO3)cc1,42%[activator],0%
CC(NS(=O)(=O)Cc1ccccc1)C(=O)O (configuration not stated),8%,19%
COc1ccc(CN2CCCN(C(=O)c3nn(-c4ccccc4)c(=O)c4ccccc34)CC2)cc1,13%,-7%
Cc1ccc(CN2C(=O)c3ccccc3Sc3ccc(C(=O)NCCCN4CCOCC4)cc32)cc1,0%,5%
CCCN(Cc1nc2cc(Cl)ccc2c(=O)[nH]1)C(=O)c1cc(OC)c(OC)c(OC)c1,65%[activator],6%
O=C1CC(C(=O)Nc2ccccc2C(F)(F)F)n2nc(SCc3ccccc3)nc2N1 (configuration not stated),1%,3%
COc1ccc(NC(=O)CSc2nc3ccccc3nc2N2CCCCC2)cc1,13%&-9%,3%&-12%
COc1ccccc1CCNC(=O)Cc1c(C)c2cc(Cl)c(O)cc2oc1=O,0%,-9%
COc1ccc(-c2cc(C)no2)cc1S(=O)(=O)N1CCN(c2cccc(C)c2)C(C)C1 (configuration not stated),?,?
Cc1ccc2c(c1)C(=O)OC(C(=O)Nc1ncc(Cc3ccc(C(C)C)cc3)s1)C2 (configuration not stated),2%,4%
CS(=O)(=O)N1CCC(NC(=O)c2ccc3ccccc3n2)CC1,-4%,11%
CCC(=O)C1=C(c2ccc(F)cc2)N(C(=O)CC)n2cnnc2S1,-6%,-3%
CCN(c1ccc(-c2csc(NC)n2)cc1)S(C)(=O)=O,12%,160%[activator]
CCc1nc2ccc(C(=O)NCCc3ccc(OC)cc3OC)cc2nc1CC,36%[activator],3%
COc1ccccc1CNC(=O)CN1C(=O)COc2ccc(S(=O)(=O)N3CCC(C)CC3)cc21,32%[activator],11%
CCOc1ccc(C(=O)NC(CC(=O)OC)c2ccc(Cl)cc2)cc1OC (configuration not stated),37%[activator],0%
Cc1nn(CCC(=O)NCc2cccnc2)c(=O)c2nn(-c3ccccc3)c(C)c12,13%,14%
Cc1ccc(-c2cc(C(=O)N(C)CC(=O)NC3CC3)c3ccccc3n2)cc1,29%,49%[activator]
CC1CCN(S(=O)(=O)c2ccc3c(c2)N(CC(=O)NCc2ccccc2)C(=O)CO3)CC1,7%,9%
COc1ccccc1-n1[nH]c(C)c(Cc2ccccc2Cl)c1=O,39%,1%
